# TRPML1 inh = inhibitors of human TRPML1 channel | Q9GZU1 | TRPML1-inducible cells, Ca2+ dye fluorescence, FDSS; stronger effect = lower value; inhibition of EC80 agonist-evoked calcium signal | activity change, negative = inhibition, % (concentration not given with the values) | 390,000 compounds, 0.02% hits | AID 624415; in the data active means activity change below about -50%; inconclusive means about -30% to -50%; inactive means above about -30%;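 note: stimulus is agonist 54-4 at its EC80 concentration; % is set by controls: 0 for no effect and ±100 for the full control effect; the text of the record puts the active cut at -80%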
#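 Tet-induced TRPML1-DL cells loaded with Ca8 no-wash calcium dye were read kinetically on FDSS. Compound addition was followed by EC80 agonist 54-4 (4 uM final); inhibition was read over 110 s.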
# D2 ag = human D2 receptor agonism in beta-arrestin assay | P14416 | DiscoveRx PathHunter D2 beta-arrestin, luminescence, 90 min; 100% = 57 uM dopamine signal | activation, % (test concentration not listed) | 360,000 compounds, 0.084% hits | AID 624465; in the data active = activation above about 40%; inconclusive = about 15% to 40%; inactive = below about 15%; note: compound concentration not given in the record; the text of the record calls up to 30% inactive
#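 Agonist mode: compounds alone added to overnight-plated D2 PathHunter cells for 90 min at 37 C, with 57 uM final dopamine (EC100) defining full response. Beta-arrestin recruitment detected by chemiluminescent reagent, read after 1 h at ambient temperature.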
# TRPML1 ag = human mucolipin-1 channel agonism | Q9GZU1 | TRPML1-expressing cells, Ca2+ dye fluorescence, FDSS; host cell line not named in the record; reference of the full effect not given here | activation, % (test concentration not listed) | 410,000 compounds, 0.12% hits | AID 624414; in the data active = activation above about 50%; inconclusive = about 30% to 50%; inactive = below about 30%; note: 0% is about no effect; the text of the record puts the active cut at 80%
#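 Tet-induced TRPML1-DL cells, 1,500 per well, cultured overnight, were loaded with a no-wash Ca2+ dye for 45–90 min. Calcium fluorescence was recorded on the FDSS for 110 s after compound addition, before the EC80 agonist (4 uM 54-4) was added.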
# PINK1 expr mod = modulators of PINK1 expression; PINK1 immunofluorescence, high-content cytometry, 24 h; Potency, µM (top dose mostly 76.6 µM), for inactives: top-dose activation (PINK1 increase), actives largely listed as activators; 410,000 compounds, 0.2% hits; AID 624263; active = well fitted activation curve with a large enough effect; inconclusive = small, poorly fitted or top-dose-only effect; inactive = flat fitted curve, though single readings scatter; cell line not stated here;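 note: potency is the fitted concentration of half-maximal effect; % of control where 0% means no effect; nearly all actives have a fitted effect of over 65% in size; a mitochondrial uncoupler was the plate control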
#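 Stable cell line treated 24 h with compounds at 5 concentrations (CCCP controls), then fixed and immunostained for PINK1 plus nuclear and cell stains; PINK1 immunofluorescence quantified by laser-scanning microplate cytometry.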
# Six1-Eya2 blk = Six1/Eya2 interaction inhibition; AlphaScreen GST-Six1/His-Eya2 binding, biochemical; stronger effect = lower value; control for the full effect not named in the record; activity change, % (test concentration not listed); 360,000 compounds, 0.56% hits; AID 651725; in the data active = activity change below about -65%; inconclusive = about -30% to -65%; inactive = above about -30%; note: % is set by controls: 0 for no effect and ±100 for the full control effect
# Target sequence (O00167 whole entry, looked up): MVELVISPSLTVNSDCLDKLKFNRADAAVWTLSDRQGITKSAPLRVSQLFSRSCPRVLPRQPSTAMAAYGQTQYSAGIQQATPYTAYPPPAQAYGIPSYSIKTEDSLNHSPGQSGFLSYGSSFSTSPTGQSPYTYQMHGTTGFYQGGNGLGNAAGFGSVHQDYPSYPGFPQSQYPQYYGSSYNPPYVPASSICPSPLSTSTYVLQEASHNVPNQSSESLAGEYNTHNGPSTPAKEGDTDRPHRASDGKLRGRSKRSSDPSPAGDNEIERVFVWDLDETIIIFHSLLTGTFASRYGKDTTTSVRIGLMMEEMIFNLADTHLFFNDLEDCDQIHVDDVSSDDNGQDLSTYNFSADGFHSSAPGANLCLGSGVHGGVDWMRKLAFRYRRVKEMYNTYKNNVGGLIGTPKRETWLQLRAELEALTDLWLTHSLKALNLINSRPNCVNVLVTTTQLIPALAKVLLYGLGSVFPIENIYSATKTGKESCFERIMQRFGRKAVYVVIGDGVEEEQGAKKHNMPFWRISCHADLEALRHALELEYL
# Target sequence (Q15475 whole entry, looked up): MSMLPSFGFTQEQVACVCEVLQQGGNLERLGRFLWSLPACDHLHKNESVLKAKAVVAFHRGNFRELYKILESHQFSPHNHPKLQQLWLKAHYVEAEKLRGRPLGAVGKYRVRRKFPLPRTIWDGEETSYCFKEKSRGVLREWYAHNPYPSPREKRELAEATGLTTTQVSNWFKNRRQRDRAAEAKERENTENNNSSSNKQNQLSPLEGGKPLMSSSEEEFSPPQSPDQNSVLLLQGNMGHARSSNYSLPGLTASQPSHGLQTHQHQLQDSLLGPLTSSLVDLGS
#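 AlphaScreen luminescence read after one hour at 37 °C in darkness. Pin-transferred compounds met GST-Six1 and His-Eya2 protein (5X stock 250 nM/500 nM) plus glutathione donor and Ni-chelate acceptor beads (5X, 50 ug/mL).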
# CtBP-E1A inh = inhibitors of CtBP/E1A interaction; AlphaScreen GST-E1A/His-CtBP binding, 1536-well; stronger effect = lower value; control for the full effect not named in the record; 340,000 compounds, 0.49% hits; activity change, % (no concentration beside the values); in the data active means activity change below about -65%; inconclusive means about -30% to -65%; inactive means above about -30%; note: % is set by controls: 0 for no effect and ±100 for the full control effect
#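 GST-E1A and His-tagged CtBP (125 nM each as 5X stock) were preincubated with pin-transferred compound for 2 h at 37 °C in the dark, then glutathione donor and nickel acceptor beads were added for 1 h before AlphaScreen reading.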
# Active calls of the source: *; ? = inconclusive; . = not tested or not shown; & = joins results of further samples; [ ] = another dose, or the depositor's remark.
SMILES,TRPML1 inh,D2 ag,TRPML1 ag,PINK1 expr mod,Six1-Eya2 blk,CtBP-E1A inh
CCN(CC)c1ccc(NC(=O)c2ccccc2F)cc1,-7,-3.2,0.1,6.4%,-26,-22
O=C(CSc1nc(-c2ccco2)cc(C(F)(F)F)n1)N1CCN(c2ccc(Cl)cc2)CC1,13,-1.7,0.4,2.0%,-19,-4
COc1ccc(-n2nnnc2SCC(=O)Nc2cccc(NC(C)=O)c2)cc1OC,5,-2.1,-0.7,4.3%[38.3 µM],-4,-3
CCOCCCNC(=O)c1cc(=O)n(Cc2cccc(C)c2)c2ccccc12,5,-1.5,-0.8,11%,-3,7
O=C(NNC(=O)c1cc(-c2ccncc2)nc2ccccc12)Nc1ccc(F)cc1,-5,1.1,0.5,0.2%,-13,-4
O=C1CC(=O)C(n2cncn2)C(c2ccc(Cl)cc2)C1 (stereo not drawn),-15,0.8,-0.3,1.6%,2,-1
Cc1ccc(CNC(=O)c2nc3nc(C)cc(C)n3n2)cc1,6,-0.8,-0.8,0.8%,-5,2
NS(=O)(=O)c1ccc(NC(=O)COC(=O)/C=C/c2ccc([N+](=O)[O-])cc2)cc1,-6,?,-0.5,6.3%,-4,?
O=C(NCc1ccco1)c1cccc(-c2nnc(-c3ccccc3)o2)c1,-14,1.3,1.7,-0.7%,-23,-4
CCC(=O)Nc1nc2ccccc2n1Cc1ccccc1Cl,-20,-1.9,-0.9,9.0%,-1,.
CCn1c(CNc2ccc(OC)cc2)nnc1SCC(=O)c1ccc(OC)cc1,-9,-2.2,-0.2,-1.6%,-10,-12
CCOC(=O)c1ccc2[nH]c3c(c2c1)CCCC3O (stereo not drawn),3,-6.3,-0.4,-1.7%,0,-8
CC1CCC(=NNC(=O)Cc2ccccc2)CC1 (stereo not drawn),-12,1.1,0.7,-1.6%[38.3 µM],7,9
C[C@H](CO)N1C[C@H](C)[C@@H](CN(C)C(=O)Nc2ccc(C(F)(F)F)cc2)Oc2ccc(NC(=O)Cn3cnnn3)cc2C1=O,-12,-1.7,-0.6,0.2%,0,-4
Cc1c(-c2ccc(Cl)cc2)c(=O)oc2c(CN3CCCC3)c(O)ccc12,-13,.,1.5,0.3%,.,.
Cc1ccc(F)cc1C(=O)N1CCCC(c2cc(C(=O)Nc3ccccc3)no2)C1 (stereo not drawn),.,-1.3,-0.6,2.4%,-3,-1
O=C(Nc1ccc2c(c1)OC1(CCCC1)O2)C1CC1,-11,-0.6,-0.2,1.0%[38.3 µM],-2,2
CCCN1C(=O)C(Cc2nc3ccccc3c(=O)n2-c2cccc(C)c2)c2ccccc21 (stereo not drawn),3,.,2.2,1.2%,.,.
CC1=CC(C)(C)N(C(=O)c2ccccc2)c2ccccc21,-5,-0.4,2.3,-1.8%,8,8
COCCn1nnnc1C(c1cc2cc(C)cc(C)c2[nH]c1=O)N1CCN(c2ccccc2F)CC1 (stereo not drawn),-6,1.4,0.0,-0.3%[38.3 µM],-3,-5
O=C(COC(=O)C12CC3CC(CC(C3)C1)C2)Nc1ccc(OC(F)F)cc1,7,-4.6,0.4,.,0,5
Cn1nc(C(=O)Nc2nc(-c3ccccn3)cs2)c2ccccc2c1=O,-17,2.0,-0.1,?,-91*,-91*
CCOC(=O)CCc1c(C)nc(SCCCn2c(=O)[nH]c3ccccc32)c(C#N)c1C,4,2.4,4.7,0.7%[38.3 µM],-2,7
CC1CCN(c2nc(-c3ccco3)c3c(c2C#N)CC(C)(C)OC3)CC1,2,-3.4,-0.2,3.6%,29,39
Brc1ccc(C2=CSC3=NCCN23)cc1,-5,1.6,0.4,-1.0%,-1,0
O=c1c2oc3ccccc3c2n(Cc2ccccc2F)c(=O)n1Cc1ccc2c(c1)OCO2,2,.,-0.7,0.3%,.,.
Cc1ccc(C)c(NC(=O)CN(C)C(=O)CC2OC(=O)c3ccccc32)c1 (stereo not drawn),19,-0.6,0.3,-1.6%,2,-10
COc1ccc(Oc2nc3c(c(=O)n(Cc4ccc(Br)cc4)c(=O)n3C)n2C)cc1,-14,.,-0.7,2.9%,.,.
Cc1ccc(NC(=O)CN(C)C(=O)c2ccc(COc3ccccc3)cc2)cc1,-13,-4.6,3.4,11%,4,-4
CC(C)(C)c1cc2nc(N)nc(N)n2n1,0,-5.8,0.1,-0.3%,4,4
O=C(Nc1nc2ccc(SC(F)F)cc2s1)c1ccc(NS(=O)(=O)c2ccc(F)c(F)c2)cc1,-3,3.5,1.0,21%,-8,-4
Cc1cccnc1NC(=O)c1ccc(S(=O)(=O)N2CC(C)OC(C)C2)cc1 (stereo not drawn),-5,-1.1,1.5,-0.3%,-8,-13
CC(OC(=O)c1ccncc1)C(=O)Nc1cc(S(=O)(=O)N2CCCCC2)ccc1Cl (stereo not drawn),4,-0.5,-0.3,0.6%,-11,-8
O=C(c1cn(-c2ccccc2)nc1-c1ccncc1)n1nnc2ccccc21,-1,-4.0,1.5,-1.5%,14,22
CCN(c1ccccc1)c1nc(C#N)nc(N(CC)c2ccccc2)n1,.,-3.1,-0.3,4.0%&19%,0,12
O=C(O)c1ccc(N/N=C/c2ccc(-c3ccccc3)cc2)cc1,14,0.5,-0.6,?,-13,-5

# 2 records picked at random from the list so far:
SMILES,TRPML1 inh,D2 ag,TRPML1 ag,PINK1 expr mod,Six1-Eya2 blk,CtBP-E1A inh
O=C(Nc1nc2ccc(SC(F)F)cc2s1)c1ccc(NS(=O)(=O)c2ccc(F)c(F)c2)cc1,-3,3.5,1.0,21%,-8,-4
CC(OC(=O)c1ccncc1)C(=O)Nc1cc(S(=O)(=O)N2CCCCC2)ccc1Cl (stereo not drawn),4,-0.5,-0.3,0.6%,-11,-8

# Filtered by structure: those above containing a cyano group
SMILES,TRPML1 inh,D2 ag,TRPML1 ag,PINK1 expr mod,Six1-Eya2 blk,CtBP-E1A inh
CCOC(=O)CCc1c(C)nc(SCCCn2c(=O)[nH]c3ccccc32)c(C#N)c1C,4,2.4,4.7,0.7%[38.3 µM],-2,7
CC1CCN(c2nc(-c3ccco3)c3c(c2C#N)CC(C)(C)OC3)CC1,2,-3.4,-0.2,3.6%,29,39
CCN(c1ccccc1)c1nc(C#N)nc(N(CC)c2ccccc2)n1,.,-3.1,-0.3,4.0%&19%,0,12

# Remaining list, next part:
SMILES,TRPML1 inh,D2 ag,TRPML1 ag,PINK1 expr mod,Six1-Eya2 blk,CtBP-E1A inh
CCOC(=O)c1csc(NC(=O)CSc2nnnn2CC)n1,5,-2.4,0.2,-0.6%,0,0
CCc1ccc(-n2c(Cc3ccccc3)nnc2SCc2nc(-c3cccs3)no2)cc1,10,.,4.8,-0.5%,.,.
NC(=O)c1ccccc1NC(=O)Cn1nc(Cc2cccnc2)c2ccccc2c1=O,4,.,1.5,0.2%,.,.
O=C(Nc1c(C(=O)N2CCOCC2)cnn1-c1ccccc1)c1ccccc1F,7,-4.0,-1.3,1.8%,11,0
O=C(NCCCN1CCN(c2ccccc2F)CC1)Nc1ccccc1[N+](=O)[O-],.,?,.,2.2%,9,1
Cn1c(=O)c2c(nc(Sc3ncccn3)n2Cc2ccccc2Cl)n(C)c1=O,-6,-0.4,0.4,-4.2%[38.3 µM],-1,0
COc1ccc(S(=O)(=O)N(C)C[C@H]2Oc3c(cccc3N(C)C)C(=O)N([C@H](C)CO)C[C@@H]2C)cc1,-11,2.3,0.5,2.2%,2,.
COc1ccc(N2CCN(S(=O)(=O)c3ccc(-c4ccno4)cc3OC)CC2)cc1,-1,.,2.4,1.9%,.,.
COc1ccc(/C=C2\N=C(SC)SC2=O)cc1OC,14,2.0,3.1,8.3%,-5,-1
COc1cc(/C=C2\SC(=S)N(C(C(=O)O)c3ccccc3)C2=O)ccc1O (stereo not drawn),-6,-9.8,15,-0.5%,-25,.
CC(OCCN1CCCC1)(c1ccc(F)cc1)c1ccc(F)cc1,16,-11,0.3,-3.3%,-4,1
CN(C)c1oc(/C=C/c2cccs2)nc1S(=O)(=O)c1ccccc1,-9,-3.3,1.9,0.4%,8,0
CCCNC(=O)C1(C)CCN(C(=O)c2cccc(Cl)c2)C1 (stereo not drawn),38,-2.4,0.0,0.5%,4,9
CCN(CC)CCOC(=O)c1ccc(NC(=O)CSc2cc(=O)n(CC)c3ccccc23)cc1,-1,.,0.6,4.7%,.,.
CC1CCN(C(=O)CN(C2CCCCC2)S(C)(=O)=O)CC1,5,-3.3,-0.3,-0.3%,1,-6
COc1cccc(NC(=O)Cn2cnc3c(oc4nc5c(cc43)CCCC5)c2=O)c1,-2,0.7,-0.3,3.1%,-5,-6
O=C(O)c1ccc(Nc2ncc([N+](=O)[O-])cc2[N+](=O)[O-])cc1,34,3.3,-1.0,1.6%,11,-1
CCSc1nnc(Cn2c(=O)sc3ccccc32)n1-c1ccc(OC)cc1,5,-2.8,1.4,-2.7%,1,7
C[N+]1(CCOC(=O)C2(c3ccccc3)CCCC2)CCCCC1,2,-1.6,0.6,5.1%,3,-4
COc1cc(OC)c(OC)cc1/C=N/Nc1ncnc2c1[nH]c1ccc(C)cc12,38,1.8,0.0,6.4%,-10,-9
Cc1oc2ccc(O)c(CN3CCN(C)CC3)c2c1C(=O)Nc1ccccc1,1,.,-0.5,2.8%,.,.
CC(C)(C)NCCCCOc1ccc(F)cc1,4,-1.2,0.0,-0.5%[38.3 µM],1,4
CS(=O)(=O)c1ccc2nc(NC(=O)C3CCCCC3)sc2c1,-13,-2.8,0.5,-1.6%[38.3 µM],6,3
O=C(C(NS(=O)(=O)c1cccc2nsnc12)c1ccccc1)N1CCN(c2ccccn2)CC1 (stereo not drawn),-1,0.5,-0.5,0.0%,-5,3
O=C(CN1CCN(c2ccc(F)cc2)CC1)NCc1ccc(F)cc1,-12,0.2,0.0,-0.4%,-2,.
C/C(=N\Nc1ccccc1Cl)c1ccc(-n2ccnc2)cc1,2,-2.2,0.0,2.8%,-1,-5
CC(C)c1ccc2[nH]c(O)c(N=NC(=S)NCCc3ccccc3)c2c1,13,-4.6,-0.4,0.6%,?,.
O=C(CN1C(=O)C2C3CCC(C3)C2C1=O)OCC(=O)c1cccc([N+](=O)[O-])c1 (stereo not drawn),-8,-24,-0.4,2.3%,4,.
O=C(CSC1=NCCS1)Nc1ccnc2ccccc12,10,0.9,-0.4,?,-4,12
COc1ccccc1CNC(=O)C1(C)CCN1C(=O)C1(c2ccccc2)CC1 (stereo not drawn),.,-5.7,-1.2,0.7%,-12,-3
COc1cc(C(=O)NCC(=O)NNC(=O)CN(C)S(=O)(=O)c2ccc(Cl)cc2)cc(OC)c1OC,-12,-0.4,-0.1,0.1%,10,0
CCOC(=O)Cn1c(S(=O)(=O)Cc2ccccc2)nc2ccccc21,9,-5.3,-0.3,-0.8%,0,-1
COc1ccc(F)cc1-c1nc(N)nc(N)n1,-7,-1.8,-0.5,0.0%,5,7
Cc1ccc(-c2nc3ccccc3s2)cc1NC(=O)COc1ccccc1,3,.,-0.6,1.9%,.,.
O=C(COc1ccccc1[N+](=O)[O-])N/N=C/c1cccc(OC(=O)c2ccc3c(c2)OCO3)c1,9,2.3,2.4,0.5%,-20,-19
COc1ccc(C(C)NC(=O)C2CCCC2)cc1 (stereo not drawn),0,6.5,-0.4,0.0%,4,2
Cc1nc2nc(NC(=O)c3ccc(F)cc3)[nH]n2c(=O)c1Cc1ccccc1,-6,.,-0.4,3.8%,.,.
